MLL AF4-AF9 inh: MLL-AF4/AF9 protein interaction inhibition; P42568; AlphaScreen, biotin-AF4 peptide binding to FLAG-AF9; inhibition, % at 10 µM; 0.47% of 350,000 active;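 active = every replicate reaching a set inhibition limit, whatever the replicate mean, cut at about 25% in these data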;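 also: 0% = plate neutral control median and 100% = total signal loss; the record names both 10 and 1 µM as test concentration; the first replicate is given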
Target sequence (P42568 whole entry, looked up): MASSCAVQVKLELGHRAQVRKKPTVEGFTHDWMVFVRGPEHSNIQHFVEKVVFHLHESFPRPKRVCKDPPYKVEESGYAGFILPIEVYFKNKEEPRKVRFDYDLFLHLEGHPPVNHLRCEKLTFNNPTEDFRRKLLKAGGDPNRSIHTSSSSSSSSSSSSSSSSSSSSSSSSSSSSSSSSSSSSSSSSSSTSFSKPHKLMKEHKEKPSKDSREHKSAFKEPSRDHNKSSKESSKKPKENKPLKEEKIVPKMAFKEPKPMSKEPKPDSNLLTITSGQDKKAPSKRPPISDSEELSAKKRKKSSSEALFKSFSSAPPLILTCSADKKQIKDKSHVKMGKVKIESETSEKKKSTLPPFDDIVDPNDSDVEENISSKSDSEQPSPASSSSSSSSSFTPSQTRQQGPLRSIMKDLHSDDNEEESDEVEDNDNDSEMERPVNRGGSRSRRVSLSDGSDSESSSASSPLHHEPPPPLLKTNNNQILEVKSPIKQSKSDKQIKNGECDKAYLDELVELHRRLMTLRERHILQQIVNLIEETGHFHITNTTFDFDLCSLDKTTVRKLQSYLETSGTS
Numbers without * were called inactive. Some of the compounds tested; rates above refer to the full screens.

nr	MLL AF4-AF9 inh	Structure
1	6.9	C[C@@H]1CN([C@H](C)CO)C(=O)c2ccccc2-c2ccccc2CO[C@H]1CN(C)C(=O)c1cc(Cl)cc(Cl)c1
2	-1.3	O=C(Cc1cccnc1)N1CC2(C1)[C@H](c1ccccc1)[C@H](CO)N2C(=O)C1CCOCC1
3	-1.9	C[C@H](CO)N1C[C@H](C)[C@H](CN(C)C(=O)Nc2ccc3c(c2)OCO3)Oc2ccc(NC(=O)CCN3CCOCC3)cc2C1=O
4	-0.9	CO[C@@H]1CN(C)C(=O)c2cc(NS(C)(=O)=O)ccc2OC[C@H](C)N(C(=O)C2CCCCC2)C[C@@H]1C
5	-3.9	COc1ccccc1-c1cnc2c(c1)C(=O)N([C@@H](C)CO)C[C@H](C)[C@@H](CN(C)C)O2
6	11	C[C@@H]1CN([C@@H](C)CO)C(=O)c2cc(NC(=O)Nc3ccccc3)ccc2O[C@@H](C)CCCCO[C@H]1CN(C)Cc1ccc2c(c1)OCO2
7	1.7	C[C@@H]1CN([C@@H](C)CO)C(=O)Cc2cc(NC(=O)Nc3ccc(F)cc3)ccc2O[C@H]1CN(C)C(=O)Nc1cccc2ccccc12
8	2.9	Cc1cc(C(=O)Nc2cccc3c2O[C@H](CN(C)C(=O)Nc2ccc(F)cc2)[C@H](C)CN([C@@H](C)CO)C3=O)n(C)n1
9	-3.9	COc1ccc(-c2cnc3c(c2)C(=O)N([C@@H](C)CO)C[C@@H](C)[C@H](CN(C)C(=O)CN(C)C)O3)cc1
10	0.5	C[C@H]1CN([C@@H](C)CO)C(=O)c2cc(NC(=O)Cn3cnnn3)ccc2O[C@@H]1CN(C)Cc1ccc(C(F)(F)F)cc1
11	0.8	COc1ccccc1C#Cc1ccc2c(c1)O[C@H](CN(C)Cc1cncnc1)[C@@H](C)CN([C@@H](C)CO)S2(=O)=O
12	-3.3	Cc1noc(C)c1COC(=O)c1ccc(F)c(S(=O)(=O)N2CCOCC2)c1
13	2.3	C[C@@H]1CCCCO[C@@H](CN(C)Cc2ccc3c(c2)OCO3)[C@H](C)CN([C@H](C)CO)C(=O)c2cc(NS(=O)(=O)c3ccc(F)cc3)ccc2O1
14	-4.7	O=C(Cc1ccccc1)N1C[C@@H]2[C@H](c3ccccc31)[C@H](CO)N2C(=O)C1CCCCC1
15	-18	Cc1cccc(C)c1NC(=O)C(c1ccncc1)n1c(=O)c(-c2cc3ccccc3[nH]2)nc2ccccc21 (stereo not given)
16	-10.0	CC(C)C(=O)Nc1ccc2c(c1)C(=O)N(C)[C@@H]1CC[C@H](CC(=O)NCCCN(C)C)O[C@H]1CO2
17	2.4	O=C(C[C@H]1CC[C@H]2[C@@H](COC[C@@H](O)CN2S(=O)(=O)c2cccc(F)c2)O1)NCc1ccc2c(c1)OCO2
18	-1.2	CC=Cc1ccc2n(c1=O)C[C@H]1[C@H](CO)[C@@H](C(=O)NCC)N(Cc3cocn3)[C@@H]21 (mixture of isomers)
19	-0.5	COC(=O)[C@@H]1[C@@H](CO)[C@@H]2Cn3c(ccc(-c4ccccc4)c3=O)[C@@H]2N1S(C)(=O)=O
20	1.5	C[C@H](CO)N1C[C@H](C)[C@@H](CN(C)S(=O)(=O)c2cccs2)Oc2ccc(NS(=O)(=O)c3ccc(F)cc3)cc2CC1=O
21	-0.5	COc1ccc(-c2ccc([C@@H]3[C@@H](CO)N(C(=O)C4CCCCC4)[C@H]3C#N)cc2)cc1
22	3.9	C[C@H](CO)N1C[C@H](C)[C@H](CN(C)Cc2ccccc2)Oc2c(NC(=O)Nc3ccc(C(F)(F)F)cc3)cccc2C1=O
23	1.7	COc1ccc(NC(=O)N(C)C[C@@H]2Oc3ccc(NC(=O)CCC(F)(F)F)cc3CC(=O)N([C@H](C)CO)C[C@@H]2C)cc1
24	-0.8	O=C(C[C@H]1C[C@@H]2c3cc(NC(=O)C4CCC4)ccc3O[C@@H]2[C@@H](CO)O1)NCC1CC1
25	0.3	C[C@H]1CN([C@@H](C)CO)C(=O)c2cc(NC(=O)CCC(F)(F)F)ccc2O[C@H]1CN(C)Cc1ccc(C(=O)Nc2ccccc2N)cc1
26	7.5	C[C@@H]1CN([C@@H](C)CO)C(=O)c2cc(NC(=O)Nc3ccc4c(c3)OCO4)ccc2O[C@@H](C)CCCCO[C@@H]1CN(C)C(=O)C1CCCCC1
27	-3.6	CC(C)C#Cc1cnc2c(c1)C(=O)N([C@H](C)CO)C[C@H](C)[C@H](CN(C)C(=O)C1CCC1)O2
28	-2.6	COc1cccc(CNC(=O)[C@H]2CCCN2C(=O)[C@H]2CCCN2C(=O)c2ccc(OC(F)(F)F)cc2)c1
29	3.4	COc1ccc(S(=O)(=O)N(C)C[C@H]2Oc3ccc(NC(=O)C4CCCCC4)cc3CC(=O)N([C@@H](C)CO)C[C@H]2C)cc1
30	2.0	COc1ccc(NC(=O)c2cc(C3CCCCN3S(=O)(=O)c3ccc(F)cc3F)on2)c(C)c1 (stereo not given)

Next part:
nr	MLL AF4-AF9 inh	Structure
31	14	C[C@H]1CN([C@@H](C)CO)C(=O)c2cccc(NC(=O)c3nc4ccccc4s3)c2O[C@H]1CN(C)Cc1ccccc1
32	4.8	C[C@@H](O)C#Cc1ccc([C@H]2[C@@H](CO)N3CCCCN(CC4CCOCC4)C[C@H]23)cc1
33	-3.0	C[C@H](CO)N1C[C@H](C)[C@@H](CN(C)C(=O)Nc2ccc3c(c2)OCO3)OCCCC[C@H](C)Oc2ccc(NS(=O)(=O)c3cn(C)cn3)cc2C1=O
34	3.9	CC(=O)c1ccc(Nc2nc(C(N)CCc3ccccc3)cs2)cc1 (stereo not given)
35	-2.0	CC(C)NC(=O)N(C)C[C@H]1OCCCC[C@@H](C)Oc2ccc(NS(=O)(=O)c3ccccc3)cc2C(=O)N([C@@H](C)CO)C[C@H]1C
36	-2.8	C[C@@H]1CCCCO[C@H](CN(C)Cc2ccncc2)[C@H](C)CN([C@H](C)CO)C(=O)c2cc(NS(=O)(=O)c3ccccc3)ccc2O1
37	-1.4	CO[C@@H]1CN(C)C(=O)c2ccc(NC(=O)Nc3ccccc3F)cc2OC[C@@H](C)N(C)C[C@H]1C
38	-3.4	Cc1ccc(S(=O)(=O)N(C)C[C@H]2Oc3ncc(-c4ccncc4)cc3C(=O)N([C@@H](C)CO)C[C@H]2C)cc1
39	-1.5	CCCNC(=O)C1(C)CCCN(C(=O)c2cc(F)ccc2C)C1 (stereo not given)
40	-2.0	CCC(=O)N1C[C@H](C)[C@@H](OC)CN(C)C(=O)c2cc(NC(=O)NC(C)C)ccc2OC[C@@H]1C
41	-5.5	Cn1cnc(CCNC(=O)C[C@H]2CC[C@@H]3[C@H](COC[C@@H](O)CN3C(=O)Nc3ccc(Cl)cc3)O2)c1
42	-1.4	C[C@H]1CN([C@@H](C)CO)C(=O)Cc2cc(NC(=O)C3CC3)ccc2O[C@@H]1CN(C)S(=O)(=O)c1cccs1
43	-3.0	C[C@H](O)C#Cc1cnc2c(c1)C(=O)N([C@@H](C)CO)C[C@@H](C)[C@@H](CN(C)C(=O)CN1CCOCC1)O2
44	0.0	N#C[C@H]1N[C@H](CO)[C@H]1c1ccccc1
45	6.3	C[C@H](CO)N1C[C@H](C)[C@H](CN(C)CC2CC2)Oc2c(NC(=O)c3nc4ccccc4s3)cccc2C1=O
46	-2.3	O=C(Cc1ccccn1)N1CC(=O)N2[C@H](C1)[C@@H](c1ccc(C#CC3CC3)cc1)[C@@H]2CO
47	1.2	C[C@@H]1CN([C@@H](C)CO)C(=O)c2cc(-c3ccc(C#N)cc3)cnc2O[C@@H]1CN(C)C(=O)Nc1ccc(F)cc1
48	2.3	C[C@@H]1CN([C@H](C)CO)C(=O)Cc2cc(NC(=O)CCN3CCOCC3)ccc2O[C@H]1CN(C)Cc1ccc(Cl)c(Cl)c1
49	1.6	COc1ccc(NC(=O)Nc2ccc3c(c2)OC[C@H](C)NC[C@@H](C)[C@H](OC)CN(C)C3=O)cc1
50	-1.5	CO[C@H]1CN(C)C(=O)c2cc(NC(=O)CC(F)(F)F)ccc2OC[C@H](C)N(CC2CC2)C[C@@H]1C
51	-0.1	CCCNC(=O)N(C)C[C@@H]1Oc2ncc(C#CCC3CCCC3)cc2C(=O)N([C@@H](C)CO)C[C@H]1C
52	-0.9	CCCNC(=O)N1C[C@@H](O)COC[C@@H]2O[C@@H](CC(=O)NCc3ccc(Cl)c(Cl)c3)CC[C@H]21
53	8.9	CC(C)=CCOc1ccc2c(C)c(CCC(=O)N3C[C@H]4C[C@@H](C3)c3cccc(=O)n3C4)c(=O)oc2c1C
54	7.1	C[C@@H]1CN([C@@H](C)CO)C(=O)c2cc(C3=CCCCC3)cnc2O[C@@H]1CN(C)C(=O)Cc1ccncc1
55	-12	CC(C)NC(=O)N(C)C[C@@H]1Oc2cc(C#C[C@@H](C)O)ccc2S(=O)(=O)N([C@@H](C)CO)C[C@H]1C
56	-0.1	C[C@@H]1CCCCO[C@@H](CN(C)S(=O)(=O)c2ccc(Cl)cc2)[C@H](C)CN([C@H](C)CO)C(=O)c2cc(NC(=O)Nc3ccccc3)ccc2O1
57	-1.3	O=C(Cc1ccncc1)NCC[C@H]1CC[C@@H](NC(=O)C2CC2)[C@H](CO)O1
58	-2.7	C[C@H](CO)N1C[C@H](C)[C@@H](CN(C)C(=O)NC2CCCC2)Oc2ncc(C3=CCCCC3)cc2C1=O
59	2.5	O=C(CN1CCOCC1)N1CC(=O)N2[C@H](CO)[C@@H](c3ccc(/C=C/c4ccccc4)cc3)[C@@H]2C1
60	-8.6	O=C(Nc1ccccc1)N1CCCCN2[C@H](CO)[C@@H](c3ccc(C#Cc4cccnc4)cc3)[C@@H]2C1

(list continues)
nr	MLL AF4-AF9 inh	Structure
61	0.7	COc1ccc2c3c(n(C)c2c1)[C@H](CO)N(C(=O)Nc1ccc(F)cc1)CC31CCN(C(=O)CN2CCOCC2)CC1
62	2.3	CCN1[C@H](C(=O)NCCN2CCCCC2)[C@@H](CO)[C@@H]2Cn3c(ccc(-c4ccc(OC)cc4)c3=O)[C@@H]21
63	1.1	C[C@@H](NC(=O)C[C@@H]1C[C@H]2c3cc(NC(=O)C4CCC4)ccc3O[C@H]2[C@H](CO)O1)c1ccccc1
64	-0.1	C[C@H]1CN([C@@H](C)CO)C(=O)c2cc(-c3ccccc3)cnc2O[C@H]1CN(C)C(=O)Cc1ccccn1
65	-0.1	O=C(N[C@@H]1CC[C@@H](CCNS(=O)(=O)c2cccc(Cl)c2)O[C@H]1CO)c1ccccc1
66	0.6	C[C@H](CO)N1C[C@H](C)[C@@H](CN(C)C(=O)C2CC2)Oc2cc(C#Cc3ccncc3)ccc2S1(=O)=O
67	-0.3	COc1ccc2c3c([nH]c2c1)[C@@H](CO)N(Cc1ccccc1)CC31CN(C(C)=O)C1
68	-1.7	CO[C@H]1CN(C)C(=O)c2ccc(NC(=O)C3CC3)cc2OC[C@@H](C)N(C(=O)c2ccccc2F)C[C@@H]1C
69	4.2	O=S(=O)(c1ccccc1)N1CC[C@H]2[C@H](CO)Nc3ccc(C#Cc4cccc(F)c4)cc3[C@H]21
70	-3.1	COc1ccc(NC(=O)Nc2cccc3c2O[C@H](CN(C)C)[C@@H](C)CN([C@H](C)CO)C3=O)cc1
71	1.3	COc1cccc(-c2cn(CC[C@H]3CC[C@H](NS(=O)(=O)Cc4ccccc4)[C@@H](CO)O3)nn2)c1
72	0.2	O=C(C[C@@H]1CC[C@H](NC(=O)C2CCC2)[C@@H](CO)O1)NCCCN1CCOCC1
73	6.6	COc1ccc(-c2cnc(C(O)c3ccc(OC)c(F)c3)[nH]2)cc1 (stereo not given)
74	-0.1	CCNC(=O)C[C@@H]1CC[C@@H](NS(=O)(=O)c2ccc(F)cc2)[C@H](CO)O1
75	0.3	COCC(=O)N(C)C[C@H]1Oc2cc(-c3ccccc3F)ccc2S(=O)(=O)N([C@H](C)CO)C[C@H]1C
76	-1.3	C[C@@H]1CN([C@H](C)CO)C(=O)c2cc(NC(=O)CCCCCC(=O)Nc3ccccc3N)ccc2O[C@@H](C)CCCCO[C@H]1CN(C)Cc1ccc(Cl)c(Cl)c1
77	-1.3	C[C@@H]1CN([C@H](C)CO)C(=O)c2cc(/C=C/c3ccccc3)cnc2O[C@H]1CN(C)C(=O)c1cccnc1
78	-3.2	C[C@@H]1CCCCO[C@@H](CN(C)C(=O)c2ccccc2)[C@@H](C)CN([C@@H](C)CO)C(=O)c2cc(NS(=O)(=O)c3cccs3)ccc2O1
79	-8.1	COc1cccc(C(=O)Nc2ccc3c(c2)C(=O)N(C)C[C@H](OC)[C@@H](C)CN(C(=O)C2CCCC2)[C@@H](C)CO3)c1
80	0.4	CCC(=O)N[C@@H]1C=C[C@H](CC(=O)NCc2ccc(OC)cc2)O[C@@H]1CO
81	2.2	CNC[C@H]1Oc2ccc(NC(=O)Nc3ccc(C(F)(F)F)cc3)cc2CC(=O)N([C@@H](C)CO)C[C@H]1C
82	-4.1	C[C@@H]1CN([C@H](C)CO)C(=O)c2cc(NC(=O)CCCN(C)C)ccc2O[C@@H]1CN(C)C(=O)NC1CCCCC1
83	-2.8	COc1ccc(CC(N)c2csc(NC(=O)c3ccc(OC)cc3)n2)cc1 (stereo not given)

Records 66 to 75 from above:
nr	MLL AF4-AF9 inh	Structure
66	0.6	C[C@H](CO)N1C[C@H](C)[C@@H](CN(C)C(=O)C2CC2)Oc2cc(C#Cc3ccncc3)ccc2S1(=O)=O
67	-0.3	COc1ccc2c3c([nH]c2c1)[C@@H](CO)N(Cc1ccccc1)CC31CN(C(C)=O)C1
68	-1.7	CO[C@H]1CN(C)C(=O)c2ccc(NC(=O)C3CC3)cc2OC[C@@H](C)N(C(=O)c2ccccc2F)C[C@@H]1C
69	4.2	O=S(=O)(c1ccccc1)N1CC[C@H]2[C@H](CO)Nc3ccc(C#Cc4cccc(F)c4)cc3[C@H]21
70	-3.1	COc1ccc(NC(=O)Nc2cccc3c2O[C@H](CN(C)C)[C@@H](C)CN([C@H](C)CO)C3=O)cc1
71	1.3	COc1cccc(-c2cn(CC[C@H]3CC[C@H](NS(=O)(=O)Cc4ccccc4)[C@@H](CO)O3)nn2)c1
72	0.2	O=C(C[C@@H]1CC[C@H](NC(=O)C2CCC2)[C@@H](CO)O1)NCCCN1CCOCC1
73	6.6	COc1ccc(-c2cnc(C(O)c3ccc(OC)c(F)c3)[nH]2)cc1 (stereo not given)
74	-0.1	CCNC(=O)C[C@@H]1CC[C@@H](NS(=O)(=O)c2ccc(F)cc2)[C@H](CO)O1
75	0.3	COCC(=O)N(C)C[C@H]1Oc2cc(-c3ccccc3F)ccc2S(=O)(=O)N([C@H](C)CO)C[C@H]1C

Screening results from PubChem.
